eIF4H FP inh = inhibitors of RNA binding by human eIF4H. actives 0.94% (n = 290,000). inhibition, % at 35 µM. Q15056. eIF4H fluorescence polarization binding assay;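 active means 50% or more with normal probe brightness, or confirmed in later tests; about a fifth of its hits are not listed in these tables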;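 further: calls also rest on retests at 20 µM and on dose response follow-up; 0% = protein and probe with vehicle and 100% = probe without protein; strong numbers were not always called active; many hits fall short of the cut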
UUG fidelity = yeast start codon fidelity modulation | actives 0.13% (n = 350,000) | activity score, % at 18.7 µM | S. cerevisiae UUG-firefly luciferase reporter, luminescence/redox ratio | AID 602363;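 active means replicate mean at a twofold rise or more, about +100% in these data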;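 further: firefly luciferase made from a UUG start codon reports start codon fidelity; reporter light over untreated wells divided by growth signal over untreated wells; some hits fall short of that in this replicate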
Rce1 inh = inhibitors of yeast Ras-converting enzyme. calls only. AID 2563. actives 0.27% (n = 290,000). yeast membranes, quenched prenylated peptide cleavage fluorescence. Q03530;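 active means fall in fluorescence gain of 50% or more versus controls, with final raw signal at or below 3038400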;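 further: plate controls were neutral control wells for no effect and wells lacking membranes for full effect; tested at 10 µM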
Target sequence (Q03530 whole entry, looked up): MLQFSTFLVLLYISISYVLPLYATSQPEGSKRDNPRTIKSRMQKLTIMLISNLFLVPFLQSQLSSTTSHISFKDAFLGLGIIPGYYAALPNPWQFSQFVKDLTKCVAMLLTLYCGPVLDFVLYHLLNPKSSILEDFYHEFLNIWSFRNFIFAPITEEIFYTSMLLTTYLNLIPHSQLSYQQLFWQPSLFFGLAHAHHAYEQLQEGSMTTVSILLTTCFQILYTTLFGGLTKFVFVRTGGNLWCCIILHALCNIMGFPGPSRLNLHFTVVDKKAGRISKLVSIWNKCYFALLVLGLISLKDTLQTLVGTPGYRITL
PABP polyA inh = PABP-poly(A) binding inhibition | actives 1% (n = 290,000) | P11940 | inhibition, % at 35 µM | PABP-poly(A) RNA binding, fluorescence polarization;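 active means 50% or more with normal probe brightness, or confirmed in later tests; about a fifth of its hits are not listed in these tables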;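 further: calls also rest on retests at 20 µM and on dose response follow-up; controls were probe without protein and protein plus probe with vehicle; some compounds called inactive have numbers as strong as hits; many hits fall short of the cut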
Target sequence (P11940 whole entry, looked up): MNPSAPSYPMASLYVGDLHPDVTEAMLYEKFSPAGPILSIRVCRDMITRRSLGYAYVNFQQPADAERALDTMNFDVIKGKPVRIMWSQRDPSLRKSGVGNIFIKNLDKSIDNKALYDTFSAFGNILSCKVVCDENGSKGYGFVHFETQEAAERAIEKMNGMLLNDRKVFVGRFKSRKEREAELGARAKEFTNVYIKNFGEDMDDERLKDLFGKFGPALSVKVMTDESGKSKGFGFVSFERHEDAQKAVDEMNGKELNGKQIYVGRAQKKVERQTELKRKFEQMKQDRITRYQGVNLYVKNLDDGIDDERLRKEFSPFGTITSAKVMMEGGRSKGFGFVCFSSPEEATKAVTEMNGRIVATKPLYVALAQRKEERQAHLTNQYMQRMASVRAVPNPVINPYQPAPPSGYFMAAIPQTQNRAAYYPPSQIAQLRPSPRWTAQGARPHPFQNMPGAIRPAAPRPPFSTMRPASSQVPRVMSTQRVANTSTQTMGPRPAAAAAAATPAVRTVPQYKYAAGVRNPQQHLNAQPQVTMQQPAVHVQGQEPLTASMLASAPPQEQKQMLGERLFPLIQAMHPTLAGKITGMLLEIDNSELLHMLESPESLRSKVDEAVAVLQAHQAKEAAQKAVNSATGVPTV
MT1-MMP act inh = inhibitors of human MT1-MMP activation. P50281. HT1080 RFP-PRO-GFP cells, GFP/RFP ratio fluorescence, overnight; percent of plate control window, DMSO zero. GFP/RFP ratio change, % at 20 µM. actives 0.061% (n = 360,000). AID 651647;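 active means GFP/RFP ratio change of at least 30% with cell ATP level not reduced by more than half and red fluorescence within 50% of control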; further: strong numbers were not always called active
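Test system: HT1080 RFP-PRO-GFP cells; Benchmarks: DMSO and RFP-L50D-GFP cell wells; Timing: cells overnight before dosing, compound overnight, 37 °C, 5% CO2; Compound: one 20 µM compound dose with 1% DMSO; Read-out: GFP/RFP fluorescence ratio.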
HIV Env fusion = blocks HIV Env-driven cell-cell fusion; HeLa-JRFL Env/CEM21 cell fusion, luciferase; inhibition, % at 12.3 µM; actives 1.1% (n = 360,000); AID 651610;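 active means mean replicate inhibition score of at least 50 and every replicate individually at or above 50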;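 further: 0% = plate neutral controls and 100% = maraviroc near 300 nM; one replicate is shown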
CSC inhib = blocks cancer stem cells. inhibition, % at 7.5 µM. AID 2717. cancer stem cell-like cells viability, luminescence. actives 1.1% (n = 300,000);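 active means mean at 75% or more and at least half the replicates too; tested in HMLE shEcad cells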;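 further: 0% = median of negative and 100% = median of positive control wells; the first replicate is given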
eIF4H FP inh retest = second read-out of eIF4H FP inh, no call of its own (marks repeat the call); inhibition, %; compound at 20 µM; confirmation average;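 mean of two retest wells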
PABP polyA inh retest = also measured in PABP polyA inh; calls as there; inhibition, %; compound at 20 µM; confirmation repeats;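 mean of two retest wells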
MT1-MMP act inh RFP = also measured in MT1-MMP act inh; calls as there; RFP signal change, %; measured here: RFP expression control read;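 0 = vehicle wells; hits needed this value within 50% of zero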
* marks the source's active call; other numbers are inactive results; i = inactive; / = no result given; & = joins results of further samples; [ ] = another dose, or the depositor's remark. No enrichment for hits; about 2.9% have a hit in one of these screens.

SMILES	eIF4H FP inh	UUG fidelity	Rce1 inh	PABP polyA inh	MT1-MMP act inh	MT1-MMP act inh RFP	HIV Env fusion	CSC inhib	others
Cc1ccc2nc3c(cc(C(=O)NC4CCCCC4)c(=N)n3C3CCCCC3)c(=O)n2c1	-12	-2	i	-6	1	-1	26	-5
CCc1ccc(OCC(O)CN2CCN(c3ccc(OC)cc3)CC2)cc1 (configuration not stated)	6	6	i	9	2	-1	0	14
Cc1cc(C)nc(-n2nc(C)cc2NC(=O)c2cc3ccccc3oc2=O)n1	/	-26	i	/	0	0	3	-8
CCOC(=O)C1=CN(C(C)C)CCC1=O	/	-11	/	/	4	2	6	/
COc1cccc(C(=O)NC2(C(F)(F)F)N=C3SCCN3C2=O)c1 (configuration not stated)	-3	7	i	-5	0	0	5	-8
CC1(C)CC(=O)C2=C(C1)OC(N)=C(C#N)C21C(=O)N(Cc2ccccc2Cl)c2ccccc21 (configuration not stated)	1	-14	i	-12	2	-5	/	-6
Nc1nc2c(F)cccc2s1	0	-2	i	10	6	4	/	19
O=C(CSc1nnc2c(Cl)cc(C(F)(F)F)cn12)Nc1ccc2c(c1)OCO2	-9	-14	i	-5	-4	1	-50	-21
CCc1nnc(NS(=O)(=O)c2ccc(NC(=S)NC(=O)/C=C/c3ccc(C(C)C)cc3)cc2)s1	33	/	i	4	0	-6	/	52
CCC(NC(=S)Nc1ccccc1)C(=O)O (configuration not stated)	-5	-7	i	107	1	0	2	/	eIF4H FP inh retest=-3;PABP polyA inh retest=6
COCCCNC(=S)N(CCN(C)C)Cc1cc2cc3c(cc2[nH]c1=O)OCCO3	2	-4	i	6	0	1	-13	1
CCC(=O)N/C(=N/c1nc(C)cc(C)n1)Nc1ccc(OC)cc1	3	-18	i	0	5	0	/	-6
CCCNC(=O)C(Cc1ccccc1)NC(=O)c1ccc(-c2ccccc2)cc1 (configuration not stated)	/	-9	/	/	-3	-1	-26	5
CCCCn1c(SCC(=O)OCC)nc2c1c(=O)[nH]c(=O)n2C	3	2	i	-9	1	3	14	0
CC1=NN(c2ccc([N+](=O)[O-])cc2)C(=O)/C1=C\N(C)C	7	/	i	17	4	-2	5	42
COc1ccc(CN2CCCC(C(=O)N3CCc4ccccc4C3)C2)cc1OC (configuration not stated)	-6	-21	i	11	4	4	-4	-3
CCOC(=O)c1sc2nc(C)nc(NCc3cccnc3)c2c1C	8	/	i	-1	-1	-2	6	1
Cc1nc(NC(=O)c2ccc([N+](=O)[O-])cc2Cl)sc1C(=O)N(C)C	11	/	i	-9	0	6	6	-17
CSCCC1NC(=O)N(CC(=O)Nc2ccc(Cl)c(S(=O)(=O)N3CCOCC3)c2)C1=O (configuration not stated)	/	/	/	/	1	-1	0	-10
Cc1ccc(S(=O)(=O)N2CCCC2C(=O)NCc2ccccc2F)cc1 (configuration not stated)	5	1	i	12	0	0	0	14
CN(CC(=O)Nc1ccccc1F)CC(=O)Nc1ccccc1Br	-3	/	i	-8	7	7	-21	7
CCN(Cc1ccccc1)C(=O)CSc1nncn1C	-1	/	i	-6	1	5	0	-9
C=C1C2(C(=O)NCc3ccco3)CCC(C2)C1(C)C (configuration not stated)	1	-11	i	-4	2	-2	/	-7
CC(NC(=O)OCc1ccccc1)C(=O)Oc1cc2oc(=O)cc(-c3ccccc3)c2cc1Cl (configuration not stated)	11	/	i	7	-12	-5	21	7
CCc1ccc(CNC(=O)C2CCN(S(=O)(=O)N3CCCC3)CC2)cc1	/	-3	i	/	-1	-1	-4	-8

Additional records
SMILES	eIF4H FP inh	UUG fidelity	Rce1 inh	PABP polyA inh	MT1-MMP act inh	MT1-MMP act inh RFP	HIV Env fusion	CSC inhib	others
CCNc1nc(NC(C)C)nc(OCCNS(=O)(=O)c2cc(C)ccc2C)n1	9	5	i	6	3	3	/	-10
O=C1C=CN(C(=O)Oc2ccccc2)CC1	8	/	i	22	-3	1	/	2
CCCn1c(NC(=O)C2CCN(S(=O)(=O)c3cccs3)CC2)nc2ccccc21	2	-23	i	-7	-8	-17	/	36
COc1ccc(NC(=O)NCc2cccnc2)cc1OC	-4	-11	i	-6	-4	-1	-68	-22
Cc1csc(=O)n1CC(=O)OCC(=O)Nc1ccc(Cl)cc1F	/	/	i	/	0	4	-16	-18
CCN(CC)S(=O)(=O)c1ccc2[nH]cc(C(=O)NCCCN3CCCCC3C)c(=O)c2c1 (configuration not stated)	7	/	i	1	7	4	10	-2
NS(=O)(=O)c1ccc(CCNC(=O)CN2CCN(c3ccccc3O)CC2)cc1	-6	/	i	1	-1	0	-7	2
O=C(NC1CCCCC1)C(c1ccccc1)N(C(=O)Cc1ccsc1)c1ccccc1 (configuration not stated)	-2	-15	i	-4	7	0	/	-8
COc1ccccc1CCc1nnc(N)s1	2	-4	i	7	-2	3	-6	-11
Cc1ccc(NC(=O)c2cc([N+](=O)[O-])ccc2NCc2cccnc2)cc1Cl	2	-25	i	4	-28	-21	33	-8
CNc1cncc(-c2ccc(O)cc2C)n1	/	-6	/	/	-3	1	5	/
COc1ccccc1NC(=O)CSc1nnc(Cn2c(=O)sc3ccccc32)n1C	-2	-6	i	4	-3	1	-1	-24
C#CCOCCOCCOCCNc1nc(N2CCN(C(=O)[C@H]([C@@H](C)CC)n3cc(CCCN=C(N)N)nn3)CC2)nc(N2CCN(C(=O)[C@H]([C@@H](C)CC)n3cc(CCCN=C(N)N)nn3)CC2)n1	13	/	i	8	/	/	/	/
C[C@@H]1CN([C@@H](C)CO)C(=O)c2cc(NC(=O)Nc3ccc4c(c3)OCO4)ccc2O[C@H]1CN(C)S(=O)(=O)c1cn(C)cn1	/	14&-5	/	/	2	4	0[16.7 µM]	/
O=S(=O)(Cc1ccc(Cl)cc1)N1CCN(Cc2ccc3c(c2)OCO3)CC1	-7	8	i	-10	1	-1	11	-11
COc1ccc(C(=O)c2ccc(OC)c(OC)c2OC)cc1	/	-11	/	/	6	-1	-235	/
Cn1nnnc1Sc1ncnc2scc(-c3ccccc3)c12	23	-17	i	7	-14	-13	38	-5
CC(C)OC(=O)c1cccnc1N1CCN(c2cccc(Cl)c2)CC1	4	/	i	4	-4	0	24	10
Cc1ccccc1Oc1ccc2c(c1)[C@@H]1C[C@H](N(C)C(=O)NC3CCCCC3)[C@H]([C@H](C)O)C(=O)N1CC2	/	3	/	/	5	-4	-406	/
O=C(Cn1ccc2ccccc2c1=O)NCCC(=O)N1CCN(c2cccc(C(F)(F)F)c2)CC1	7	8	i	4	3	-2	36	-11
COc1ccc(C(=O)Nc2ncccc2C)cc1S(=O)(=O)N1CCCc2ccccc21	/	/	i	/	7	-1	-30	3
Cc1nc2c(C)cccn2c(=O)c1NC(=O)c1cccc2ccccc12	/	-17	i	/	3	3	3	-9
Cc1cccc(NC2=C/C(=N/S(=O)(=O)c3cccs3)c3ccccc3C2=O)c1	-1	/	/	6	-27	-42	76*	119*
COCCn1c(=S)[nH]c2cc(C(=O)N3CCc4ccccc4C3)ccc2c1=O	4	/	i	0	8	2	-20	3
CCCOc1cccc(C(=O)N(Cc2ccco2)C2CCS(=O)(=O)C2)c1 (configuration not stated)	-10	-4	i	-10	1	-1	/	-13

Carrying on.
SMILES	eIF4H FP inh	UUG fidelity	Rce1 inh	PABP polyA inh	MT1-MMP act inh	MT1-MMP act inh RFP	HIV Env fusion	CSC inhib	others
C[C@H](CO)N1C[C@H](C)[C@@H](CN(C)Cc2ccc(-c3ccccc3)cc2)Oc2c(NC(=O)Nc3ccc4c(c3)OCO4)cccc2C1=O	/	-2&-15	/	/	-3	-1	14[16.7 µM]	/
Cc1cc(C)n(CC(=O)N/N=C/c2c[nH]c3ccccc23)n1	5	/	i	-2	1	4	26	-3
NC(Cc1ccc(C(F)(F)F)cc1)c1csc(Nc2cc(Oc3ccccc3)ncn2)n1 (configuration not stated)	/	-13	/	/	0	-5	-3	/
COc1ccc(NC(=O)NCc2ccccn2)c(OC)c1	14	-26	i	-2	-4	0	-15	5
CCOC(=O)C1CCCN(C(=O)CNC(=O)c2nn(-c3ccc(OC)c(Cl)c3)c(=O)c3ccccc23)C1 (configuration not stated)	-2	7	i	-5	3	-3	3	-3
COc1ccc(NC(=O)CCCNC(=O)c2ccc(Cl)cc2)cc1OC	-6	-17	i	5	-2	0	11	1
C=COCCNC(=O)Nc1ccc(Cl)c(Cl)c1	2	-1	i	1	8	-1	/	/
Cc1cc(=O)[nH]c(N/N=C/c2ccc(O)c(O)c2)n1	6	/	i	7	4	0	-27	-6
Cc1cc(Cl)c(S(=O)(=O)N2CCCC2)cc1OCC(=O)NC1CCCCC1	-1	0	i	0	-4	-20	78*	-4
O=C(c1ccc(N2CCCCC2)c([N+](=O)[O-])c1)N1CCOCC1	-2	-11	i	-9	4	0	18	-6
CC12CCC(=O)N1C(C(=O)Nc1ccc(SC(F)F)cc1)CS2 (configuration not stated)	/	-2	i	/	-3	1	-3	-9
Cc1ccc(C)c(CC(=O)N2CCCC(c3cc(C(=O)Nc4ccccc4Cl)no3)C2)c1 (configuration not stated)	/	-13	/	/	-5	-3	5	/
COC(=O)c1cn[nH]c1NC(=S)Nc1ccc(Cl)c(Cl)c1	3	-54	i	2	2	-2	i	-5
Cc1ccc(NC(=O)CSc2nnc(C)c(=O)n2N)cc1	-1	/	i	-10	-7	-3	-1	-13

Of the compounds above, these have an aryl methoxy group:
SMILES	eIF4H FP inh	UUG fidelity	Rce1 inh	PABP polyA inh	MT1-MMP act inh	MT1-MMP act inh RFP	HIV Env fusion	CSC inhib	others
CCc1ccc(OCC(O)CN2CCN(c3ccc(OC)cc3)CC2)cc1 (configuration not stated)	6	6	i	9	2	-1	0	14
COc1cccc(C(=O)NC2(C(F)(F)F)N=C3SCCN3C2=O)c1 (configuration not stated)	-3	7	i	-5	0	0	5	-8
CCC(=O)N/C(=N/c1nc(C)cc(C)n1)Nc1ccc(OC)cc1	3	-18	i	0	5	0	/	-6
COc1ccc(CN2CCCC(C(=O)N3CCc4ccccc4C3)C2)cc1OC (configuration not stated)	-6	-21	i	11	4	4	-4	-3
COc1ccc(NC(=O)NCc2cccnc2)cc1OC	-4	-11	i	-6	-4	-1	-68	-22
COc1ccccc1CCc1nnc(N)s1	2	-4	i	7	-2	3	-6	-11
COc1ccccc1NC(=O)CSc1nnc(Cn2c(=O)sc3ccccc32)n1C	-2	-6	i	4	-3	1	-1	-24
COc1ccc(C(=O)c2ccc(OC)c(OC)c2OC)cc1	/	-11	/	/	6	-1	-235	/
COc1ccc(C(=O)Nc2ncccc2C)cc1S(=O)(=O)N1CCCc2ccccc21	/	/	i	/	7	-1	-30	3
COc1ccc(NC(=O)NCc2ccccn2)c(OC)c1	14	-26	i	-2	-4	0	-15	5
CCOC(=O)C1CCCN(C(=O)CNC(=O)c2nn(-c3ccc(OC)c(Cl)c3)c(=O)c3ccccc23)C1 (configuration not stated)	-2	7	i	-5	3	-3	3	-3
COc1ccc(NC(=O)CCCNC(=O)c2ccc(Cl)cc2)cc1OC	-6	-17	i	5	-2	0	11	1
